TSHR ag: activates the human thyroid stimulating hormone receptor | 0.48% of 73,000 active | AID 926 | Potency, µM (titrated, usually from 57.1 µM), inactives show at the highest dose activation, hits mostly activators | HEK293-CNG-TSHR cells (CNG channel as cAMP sensor), membrane potential dye, cAMP; active = well fitted activation curve of enough size with the parental cells flat; inconclusive = any curve in the parental cells; inactive = parental cells flat and receptor cells flat or falling; also: potency is read from the fitted curve at half-maximal effect; % of control where 0% means no effect; weak receptor curves with flat parental cells got no call and are not listed
Target sequence (P16473 whole entry, looked up): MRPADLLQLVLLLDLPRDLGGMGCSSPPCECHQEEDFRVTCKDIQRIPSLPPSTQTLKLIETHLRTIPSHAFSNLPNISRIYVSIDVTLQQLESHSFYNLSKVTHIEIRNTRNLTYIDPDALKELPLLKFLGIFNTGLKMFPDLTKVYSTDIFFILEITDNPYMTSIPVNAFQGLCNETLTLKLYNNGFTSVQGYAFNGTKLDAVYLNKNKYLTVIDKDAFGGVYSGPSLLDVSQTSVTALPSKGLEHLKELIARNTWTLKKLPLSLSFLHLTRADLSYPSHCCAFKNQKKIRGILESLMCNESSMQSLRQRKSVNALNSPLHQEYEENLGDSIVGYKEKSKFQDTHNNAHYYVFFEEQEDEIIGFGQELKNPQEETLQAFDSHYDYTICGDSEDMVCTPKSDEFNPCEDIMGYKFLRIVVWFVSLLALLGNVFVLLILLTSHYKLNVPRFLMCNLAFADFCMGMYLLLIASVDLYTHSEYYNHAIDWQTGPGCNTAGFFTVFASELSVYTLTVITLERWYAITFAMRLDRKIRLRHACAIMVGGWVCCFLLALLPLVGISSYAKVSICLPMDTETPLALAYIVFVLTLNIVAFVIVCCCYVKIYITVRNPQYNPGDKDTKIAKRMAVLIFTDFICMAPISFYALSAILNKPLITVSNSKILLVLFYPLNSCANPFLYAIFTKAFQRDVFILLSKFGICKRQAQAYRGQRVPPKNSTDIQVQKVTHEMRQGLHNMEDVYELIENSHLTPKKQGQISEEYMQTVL
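cAMP rise detected as CNG-channel membrane depolarization by fluorescent dye (emission 590 nm), 30 min after compound, following 60 min dye loading containing 100 uM RO 20-1724 at room temperature. Cells: TSHR/CNG HEK 293, with parental CNG HEK 293 as control.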
AID923: qHTS Assay for Allosteric/Competitive Inhibitors of Caspase-1: Spectroscopic Profiling in AFC Spectral Region | compound fluorescence, AFC spectral region (405/520 nm); almost no hit is shown here | Potency, µM (titrated, usually from 57.5 µM), for the others: at the top dose fluorescence increase, hits mostly activators | 1.1% of 75,000 active; active = well fitted activation curve with a large enough effect; inconclusive = small, poorly fitted or top-dose-only effect;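 also: potency is read from the fitted curve at half-maximal effect; 0% is about no effect; scaled to a free AFC standard on each plate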
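Compound autofluorescence profiled at 405 nm ex/520 nm em during kinetic caspase 1 run (50 nM enzyme, 5 uM Ac-WEHD-AFC, HEPES pH 7.5, 10 mM DTT). Titration up to 57 uM; baseline from regression intercept, normalized to AFC standard curve.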
A488 autofl: compound autofluorescence in A488 spectral region; compound autofluorescence, A488 spectral region, dye equivalency; active compounds read high; max dye equivalency, M; 0.1% of 59,000 active; AID 591; active = above 10 nM dye equivalent; inconclusive = 1 to 10 nM; inactive = 1 nM or less; about half of its hits are not listed in these tables;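 also: highest value over a series up to 38 µM; compound alone in buffer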
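Intrinsic compound fluorescence is measured in 100 mM Tris buffer at pH 8.0 following 15 min incubation at room temperature. Intensities at 480 nm excitation/540 nm emission are calibrated to an on-plate A488 concentration series, giving dye-equivalent concentrations.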
Resorufin autofl: resorufin region autofluorescence; max dye-equivalent concentration, M; 0.04% of 59,000 active; Compound fluorescence, resorufin region 547/598 nm, buffer; active compounds read high; active = above 10 nM dye equivalent; inconclusive = 1 to 10 nM; inactive = 1 nM or less; a few of its hits are not listed in these tables; also: highest value over a series up to 38 µM
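Compounds in 100 mM Tris buffer, pH 8.0, incubated 15 min at room temperature, then read with 547 nm excitation and 598 nm emission filters. Fluorescence was converted to dye-equivalent concentration using an on-plate six-point resorufin standard curve.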
A647 fluor: A647 region autofluorescence; Compound fluorescence, A647 channel (570/671 nm), Tris buffer; max dye-equivalent concentration, M; 59,000 tested, under 10 active; AID 592; active means above 1 µM dye equivalent; inconclusive means 0.1 to 1 µM; inactive means 0.1 µM or less;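 also: values scaled relative to a standard on each plate; highest value over a series up to 38 µM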
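Fluorescence read (570 nm ex, 671 nm em) after 15 min RT incubation of compounds in 100 mM Tris buffer, pH 8.0; values expressed as dye-equivalent concentration against a six-point A647 standard series on each plate.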
Numbers without * were called inactive; i = inactive; u = inconclusive; x = not tested or not shown; [ ] = remark or other dose. The list is partial; the hit share may differ from the screen's.

molecule	TSHR ag	AID923	A488 autofl	Resorufin autofl	A647 fluor
O=C(CCN1C(=O)COc2ccccc21)NCCN1CCN(c2cccc(Cl)c2)CC1	-5%[11.4 µM]	-0.5%	i	i	3.1e-08
N#CCCN(Cc1cccnc1)C(=O)c1ccc(S(=O)(=O)N2CCOCC2)cc1	4%	-0.4%	i	i	3.9e-09
Nc1ccc(Cl)c(-c2nc3ncccc3o2)c1	-4%	1.3%	x	x	x
CN(C)C(=O)c1ccc(-c2nccc(Nc3ccc(F)cc3)n2)cc1	4%	1.0%	i	i	4.3e-08
CCCc1cc(C(=O)N2CCN(C(c3ccccc3)c3ccccc3)CC2)no1	4%	-0.7%	x	x	x
Cc1csc(NC(=O)c2nc(-c3ccccc3)n(-c3ccccc3)n2)n1	7%	1.5%	i	i	1e-09
O=[N+]([O-])c1ccccc1Nc1ccccc1	-3%	-2.6%	x	x	x
NC(=O)c1cn(-c2ccccc2)nc1-c1cccnc1	-12%	0.5%	i	i	1e-09
O=C1NC2CCCCC2NC1CC(=O)N1CCN(c2ccccc2)CC1 (centres undefined)	-14%	-0.2%	i	i	2.6e-08
Cc1csc(NC(=O)C2CCCCC2C(=O)O)n1 (centres undefined)	5%	2.3%	x	x	x
CCn1c(=O)c2cc(C(=O)NCc3cccs3)sc2c2ccccc21	-4%	1.1%	x	x	x
COc1ccc(CCNC(=O)CN(c2ccccc2OC)S(C)(=O)=O)cc1OC	4%[11.4 µM]	0.5%	x	x	x
O/N=C(\Cc1cscn1)c1ccc(O)cc1O	4%	-0.7%	i	i	1.2e-08
O=C(Cn1cnc2ccccc2c1=O)Nc1ccc2c(c1)CCC2	1%	0.6%	i	i	1e-09
O=C1CN(C(=O)c2ccccc2F)c2ccccc2N1	3%	0.5%	i	i	5e-09
COC(=O)c1c(NC(=O)CSc2nnc(-c3cccnc3)n2Cc2ccco2)sc(C)c1C	7%[11.4 µM]	0.5%	i	i	1e-09
O=C(Nc1sc2c(c1C(=O)NC1CCCCC1)CCC2)c1ccco1	16µM*	1.2%	i	i	1e-09
O=C(CCS(=O)(=O)c1cccc2nonc12)NCCc1ccccc1	-3%	1.3%	i	i	2.9e-08
CCCn1[nH]cc(SC)c(=O)c1=O	6%	2.6%	x	x	x
O=C(c1cc2c(s1)-c1ccccc1OC2)N1CCN(c2ccccn2)CC1	u	7.1%	x	x	x
Cc1cc2cc(CN(Cc3ccc4c(c3)OCO4)C(=O)c3cnccn3)c3nnnn3c2cc1C	u	-0.7%	i	i	5.3e-08
CCc1ccc(S(=O)(=O)c2n[nH]n3c2nc(=O)c2ccccc23)cc1	u	7.3%	i	i	2.2e-08
N#Cc1nc(-c2ccco2)oc1N1CCCC1	7%	5.3%	i	i	1e-09
CCOC(=O)c1ccccc1NS(=O)(=O)c1ccc(S(=O)(=O)N2CCCC2)cc1	3%	0.5%	i	i	1.2e-08
Cc1cccc2cc(CN(Cc3nnnn3C3CCCC3)C3CCCCC3)c(=O)[nH]c12	u	0.5%	i	i	1e-09
CC(C(=O)Nc1ccccc1F)N1C(=O)c2ccccc2C1=O (centres undefined)	-2%	4.5%	x	x	x
COc1cc(S(=O)(=O)NCC2CCCO2)c(OC)cc1Cl (centres undefined)	1%	-3.3%	i	i	3.1e-08
O=C(NCCN1CCOCC1)c1cccs1	-3%	0.9%	i	i	4.7e-08
COC(=O)c1[nH]c(C)c(/C(O)=C2\C(=O)C(=O)N(CCN(C)C)C2c2ccc(OC)cc2)c1C (centres undefined)	-2%	-3.4%	i	i	9.6e-09
CCOc1ccc(N=C2C(=O)N(CN3CCOCC3)c3ccccc32)cc1	x	x	i	i	1e-09
CC(=O)NCCc1cc2cc(C)c(C)cc2[nH]c1=O	2%	0.1%	i	i	7.5e-09
CCOC(=O)N1CCC(N2C(=O)c3ccccc3C2Nc2ccc3c(C)cc(=O)oc3c2)CC1 (centres undefined)	5%	9.8%	x	x	x
CNC(=O)c1nnc(Cc2ccc(F)cc2)o1	2%	0.7%	x	x	x
CCOC(=O)c1sc(NC(=O)CSc2ncn[nH]2)c(C#N)c1C	11%	0.7%	i	i	1.9e-08
CCCn1cc(S(=O)(=O)CC(=O)Nc2ccc(OCC)cc2)c2ccccc21	u	0.7%	i	i	2.6e-08
COCCNC(=O)c1cc2c(-c3ccc(Cl)cc3)nn(C)c2s1	3%	-0.6%	x	x	x
Cc1onc(-c2ccccc2Cl)c1C(=O)Nc1ccc2c(c1)OCO2	8%	0.3%	x	x	x
O=C(CN(C(=O)CCC(=O)Nc1ccccn1)c1ccc2c(c1)OCCO2)NCCc1ccccc1	u	0.3%	i	i	1.4e-08
Cc1cccc(Cn2c(N3CCCCC3C)nc3c2c(=O)[nH]c(=O)n3C)c1 (centres undefined)	u	1.4%	x	x	x
CN(C)S(=O)(=O)c1ccc(C(=O)Nc2nnc(Cc3ccccc3)s2)cc1	28%	0.7%	i	i	1e-09
CCOC(=O)c1c(C)c(C(=O)Nc2ccc3c(c2)OCO3)c(C)n1C	-51%[inhibitor][11.4 µM]	0.1%	i	i	1e-09
COc1ccc(CC(=O)NCc2cccs2)cc1	x	1.0%	i	i	4.1e-08
COc1cc2c(CCNC(C)=O)c[nH]c2cc1O	-3%	1.8%	i	i	1e-09
CCN1CCCC1CNC(=O)Cn1cccc1C(=O)c1ccccc1C (centres undefined)	u	0.1%	i	i	1e-09
COc1ccccc1NC(=O)COC(=O)CNC(=O)c1ccc(OC)c(OC)c1	11%	-0.1%	i	i	2.2e-09
O=C(c1ccc(NS(=O)(=O)c2cccs2)cc1)N1CCCCC1	1%	-0.7%	i	i	1e-09
O=C(CSc1nnc2scc(-c3ccccc3)n12)N1CCCc2ccccc21	8%	0.0%	i	i	1.8e-08
CCOc1ccccc1C1CC(c2ccccc2)Nc2nc(N)nn21 (centres undefined)	-5%	2.7%	x	x	x
Cc1c(C(=O)O)oc2ccc(S(=O)(=O)NCCC3=CCCCC3)cc12	-6%	2.5%	i	i	1e-09
COCc1nnc(SCC(=O)NCc2ccccc2)n1-c1ccccc1	1%	-1.4%	i	i	1.5e-08

2 neighbouring compounds out of the list so far, quoted:
molecule	TSHR ag	AID923	A488 autofl	Resorufin autofl	A647 fluor
CCOC(=O)c1c(C)c(C(=O)Nc2ccc3c(c2)OCO3)c(C)n1C	-51%[inhibitor][11.4 µM]	0.1%	i	i	1e-09
COc1ccc(CC(=O)NCc2cccs2)cc1	x	1.0%	i	i	4.1e-08

Other structures
molecule	TSHR ag	AID923	A488 autofl	Resorufin autofl	A647 fluor
CCCCCCn1c(CN2CCN(C(=O)OCC)CC2)nc2c1c(=O)n(C)c(=O)n2C	9%	0.1%	i	i	3.8e-08
Cc1ccc(-c2nc(CSCC(=O)NCc3cccnc3)c(C)o2)cc1	-2%[11.4 µM]	-0.2%	i	i	1.9e-08
Cc1c(C(=O)NCc2cccnc2)oc2ccc(S(=O)(=O)N3CCCCC3)cc12	2%	-1.7%	i	i	3.5e-08
Cc1ccccc1-n1nnnc1SCc1csc(-c2ccccc2)n1	u	-0.5%	i	i	4.1e-08
Cc1cnc(C(=O)Nc2ccccc2-n2cccc2)cn1	9%	-1.5%	i	i	2.3e-08
CC(C)Cc1nc(NCCN2CCOCC2)c(C#N)c2c1COC(C)(C)C2	x	x	i	i	2e-08
CCN(CC)C(=O)CSC1=C(C#N)C(c2ccco2)C(C(=O)OCCOC)=C(C)N1 (centres undefined)	x	x	i	i	3.3e-09
COC(=O)c1ccc(C2/C(=C(/O)c3ccc(OC)cc3)C(=O)C(=O)N2Cc2ccco2)cc1 (centres undefined)	x	x	i	i	1e-09
CC1CC(C)CN(Cc2nc(N)nc(Nc3ccc4ccccc4c3)n2)C1 (centres undefined)	5%	-0.4%	i	i	1.7e-08
COc1ccc(NC(=O)C2CCCN(S(=O)(=O)c3cccnc3)C2)cc1 (centres undefined)	3%	0.4%	i	i	1e-09
COc1ccc(CCNS(=O)(=O)c2ccc(F)cc2)cc1OC	5%	1.0%	i	i	4.8e-08
CCOC(=O)CCCn1nc(C)n2c(cc3sccc32)c1=O	14%	0.2%	i	i	2.3e-08
COc1cc(NCCCC(C)N)c2ncccc2c1 (centres undefined)	u	0.8%	i	i	3.6e-09
O=C1CCCc2c1cc(C(=O)Nc1ccc(Br)cn1)c(=O)n2-c1ccccc1	18%	3.7%	i	i	1.7e-09
COC(=O)C1C(=O)c2c([nH]c(C(=O)OC3CCCCC3)c2C)CC1C (centres undefined)	u	5.2%	x	x	x
CCCCOC(=O)Nc1ccccc1C(=O)N1CCCC1	0%	1.9%	x	x	x
Cn1c(SCC2CCCO2)nnc1-c1ccncc1 (centres undefined)	6%	6.9%	i	i	1e-09
C=C(C)[C@H]1CC[C@]2(CO)CC[C@]3(C)[C@@H](CC[C@H]4[C@@]5(C)CC[C@@H](O)C(C)(C)[C@@H]5CC[C@@]43C)[C@H]12	4%[25.6 µM]	-0.2%[25.7 µM]	i	i	3.7e-08
O=C(c1ccccc1C(=O)N1CCN(c2ccccc2)CC1)N1CCN(c2ccccc2)CC1	u	1.3%	i	i	1.3e-08
COc1ccc(-c2nnc(SCC(=O)NC(C)c3ccccc3)o2)cc1OC (centres undefined)	7%	-1.2%	x	x	x
CC(=O)c1cccc(NS(=O)(=O)c2ccc3c(c2)oc(=O)n3C)c1	2%	-1.5%	i	i	2.1e-08
CN(C)C[C@H]1CCC[C@@H](CN(C)C)C1=O	-5%[11.4 µM]	1.8%[11.5 µM]	i	i	1e-09
COCCn1c(=O)c(-c2ccc(F)c(F)c2)nc2cncnc21	u	11%	i	i	1e-09
CCc1nnc(NC(=O)CSc2nc3c(c(=O)n2CC)SC(C)C3)s1 (centres undefined)	-7%	-1.8%	x	x	x
COc1ccc2[nH]c(C)c(CN3CCC(C)CC3)c(=O)c2c1	-4%[11.4 µM]	1.3%	x	x	x
Cc1onc(-c2ccccc2Cl)c1C(=O)Nc1ccc(S(=O)(=O)N2CCCC2)cc1	-24%	-0.8%	x	x	x
CC(=O)CN1Cc2ccccc2/C1=N\C(=O)Nc1ccccc1	7%	1.3%	i	i	1e-09
O=C(O)c1ccc2cc(-c3ccc(O)c(C45CC6CC(CC(C6)C4)C5)c3)ccc2c1	1%	1.4%	x	x	x
CCCn1c(SCC(=O)Nc2c(C)cccc2CC)nnc1C(C)C	2%	2.4%	i	i	2.8e-08
CCOc1ccc2nc(COC(=O)c3ccco3)c(C(C)=O)[n+]([O-])c2c1	x	1.7%	i	i	1e-09
Oc1cnn(-c2ccccc2)c1	-16%	0.7%	x	x	x
C[C@H](NC(=O)[C@@H]1C[C@H]1[C@@H](NC(=O)OCc1ccccc1)c1ccccc1)c1ccccc1	u	0.5%	x	x	x
O=C(CSc1nnc(-c2ccccc2Br)o1)N1CCN(C(=O)c2ccco2)CC1	4%	0.9%	i	i	1.6e-09
Cc1nc(SCn2nnc3ccccc3c2=O)c2c(C)c(C)sc2n1	2%	0.0%	i	i	2.9e-09
CC1(C)c2ccccc2N2CC(=O)NC21/C=C/c1ccco1 (centres undefined)	2.5µM*	4.9%	i	i	1e-09
O=C(c1ccccc1)[C@@H]1O[C@H]1c1ccc(-c2ccccc2)cc1	25%	-2.5%	x	x	x
O=C1CC(N(O)C2CC(=O)N(Cc3ccccc3)C2=O)C(=O)N1Cc1ccccc1 (centres undefined)	x	x	i	i	1e-09
CC(=O)COc1ccc2c3c(c(=O)oc2c1C)CCCCC3	53%	-0.4%	i	i	3.9e-09

Bioassay records from PubChem.
